High-throughput results as filed in PubChem.
RGS4 pot – potentiators or activators of RGS4; B-score at 10 µM; HEK293 M3R/inducible RGS4, carbachol calcium flux Fluo4; hits give low values; AID 463111; actives 0.92% (n = 310,000);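 active means B-score of the integrated calcium signal more than 4 SD below the library mean, with starting fluorescence not abnormally high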;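 further: negative B-score means reduced calcium response which marks RGS4 activation or potentiation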
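Assay system: Inducible-RGS4 HEK293 cells carrying M3 receptor | Schedule: Compound preincubation 20 min at room temperature before agonist | Signal: Kinetic calcium fluorescence imaging with Fluo4-AM dye, 2 µM | Read-out basis: B score from integrated fluorescence ratio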
KCNK9 block – inhibitors of human KCNK9 two-pore domain potassium channel | actives 1.2% (n = 310,000) | HEK293 KCNK9, FluxOR thallium flux fluorescence; hits give low values | AID 488922 | B-score at 10 µM | Q9NPC2;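 active means ratio B-score over 3 SD below the library mean, with starting fluorescence within 5 SD of its mean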;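 further: negative B-score means less thallium flux so channel inhibition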
Target sequence (Q9NPC2 whole entry, looked up, the tested form may be a part): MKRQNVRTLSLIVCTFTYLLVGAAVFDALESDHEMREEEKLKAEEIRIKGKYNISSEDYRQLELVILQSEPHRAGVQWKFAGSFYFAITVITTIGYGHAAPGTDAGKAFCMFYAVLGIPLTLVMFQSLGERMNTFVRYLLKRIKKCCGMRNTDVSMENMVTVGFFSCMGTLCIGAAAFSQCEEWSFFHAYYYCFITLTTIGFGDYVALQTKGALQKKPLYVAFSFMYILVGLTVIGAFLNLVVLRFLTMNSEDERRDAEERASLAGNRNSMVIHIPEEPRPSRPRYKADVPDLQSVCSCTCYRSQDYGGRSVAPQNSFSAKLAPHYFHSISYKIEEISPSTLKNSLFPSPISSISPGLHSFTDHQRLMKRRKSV
GSK3 alpha inh – human GSK-3 alpha kinase inhibition. ADP-Glo luminescence, 60 min. inhibition, % at 10 µM. actives 0.1% (n = 320,000);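 in the data active means inhibition above about 50%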;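 further: GST-tagged GSK-3 alpha with peptide substrate and 25 µM ATP; 0% = DMSO neutral wells and 100% = GW8510 positive control wells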
hERG rescue – compounds protecting human hERG from proarrhythmic drug block; CHO-hERG, FluxOR thallium flux, dofetilide IC70 present; activation (rescue from dofetilide block), less the hit threshold, % at 10 µM; actives 0.51% (n = 310,000);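 active means activation above the mean of controls blocked by dofetilide plus 5 SD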;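 further: thallium influx through hERG after potassium depolarization seen as dye fluorescence rise; in these data hits start at about 4.7%; inactives centre near -7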
PolyA inh – inhibitors of polyadenylation in S. cerevisiae; S. cerevisiae SKY197-pL101 polyadenylation reporter, beta-gal luminescence; efflux-impaired pdr1/pdr3 knockout yeast; score 100 = 6 SD above DMSO; calls only at 12 µM; actives 0.02% (n = 300,000);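 active means lowest replicate activity score at least 50, where 100 means six control SD above control mean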;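 further: yeast exposed to compound for 9 h at 30 °C; higher score means more reporter readthrough which indicates perturbed polyadenylation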
KCNQ1 block – inhibitors of human KCNQ1 potassium channel. B-score at 10 µM. actives 1.3% (n = 310,000). CHO-K1 KCNQ1, FluxOR thallium flux fluorescence; hits give high values. P51787;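 active means compounds whose thallium flux B-score, printed positive for inhibition, exceeds three library SD while starting fluorescence stays within three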;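 further: channel opened by potassium depolarization with thallium stimulus after 20 min compound exposure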
GSK3beta inhib – human GSK3beta kinase inhibition. GST-GSK3beta kinase, ADP-Glo luminescence, 60 min; hits give low values. P49841. activity score (negative = inhibition), % at 10 µM. actives 0.038% (n = 300,000);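 active means more than half of replicate wells score below -50%, meaning over 50% inhibition versus plate controls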;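 further: 0% = median DMSO wells and -100% = median GW8510 positive control wells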
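Test system – GST-tagged human GSK3beta kinase, cell-free · Incubation – 60 min enzyme reaction, room temperature · Signal – ADP-Glo luminescence · Also added – peptide substrate and ATP at 25 µM · Controls – DMSO neutral wells and GW8510 at 20 µM as positive · Buffer or medium – Tris/MgCl2 kinase buffer · Measure – Luminescence-derived activity versus plate DMSO and GW8510 wells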
KCNK3 inh – human KCNK3 channel inhibition, primary screen; actives 0.84% (n = 340,000); AID 602410; B-score at 10 µM; CHO-KCNK3 thallium flux, FluxOR fluorescence; hits give low values; O14649;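 active means B-score under library mean minus 4 SD, starting fluorescence ratio at most library mean plus 5 SD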;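 further: more negative B-score means stronger inhibition of thallium flux through KCNK3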
KCNQ1 pot – potentiates or activates the human KCNQ1 potassium channel. P51787. CHO-K1 KCNQ1, thallium flux FluxOR fluorescence; hits give high values. B-score at 10 µM. actives 0.35% (n = 310,000);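 active means fluorescence ratio B-score, a plate-corrected score, at least three library SD, with initial intensity B-score within 5 SD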
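Material: CHO-K1 cells stably expressing KCNQ1. Medium: assay buffer for compound exposure, DMSO matched across wells. Reagent: K+/Tl+ depolarizing stimulus. Compound dosing: single-concentration screen. Times: 37 °C overnight plating, 90-min dark dye load, 20-min compound pretreatment. Technique: FluxOR Tl+ flux fluorescence.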
HDAC3 inhib – inhibitors of human histone deacetylase 3. recombinant HDAC3, fluorogenic peptide/trypsin coupled, fluorescence. inhibition, % at 8.3 µM. actives 0.15% (n = 320,000). AID 2718; in the data active means inhibition above about 26%, passing the limit was not always enough
An asterisk follows results filed as active; i = inactive; . = no result given. Not all compounds are listed; count on the stated rates, not on these rows.

A first look, 3 compounds:
SMILES	KCNK3 inh	GSK3beta inhib	hERG rescue	KCNQ1 block	RGS4 pot	PolyA inh	KCNK9 block	GSK3 alpha inh	HDAC3 inhib	KCNQ1 pot
Cc1ccc(C(=O)/C=C2\NCC(C)NC2=O)cc1 (stereo not drawn)	i	0	-11	i	i	i	i	-3	1	i
Cc1cc(-c2onc3ccc(Cl)cc23)ccc1O	i	-26	-4	i	i	i	i	8	2	i
c1csc(CNc2ncnc3ccc(-c4ccc5c(c4)OCO5)cc23)c1	i	.	.	.	.	.	.	0	0	.

Main list, from the first entry:
SMILES	KCNK3 inh	GSK3beta inhib	hERG rescue	KCNQ1 block	RGS4 pot	PolyA inh	KCNK9 block	GSK3 alpha inh	HDAC3 inhib	KCNQ1 pot
Cc1ccc(C(=O)/C=C2\NCC(C)NC2=O)cc1 (stereo not drawn)	i	0	-11	i	i	i	i	-3	1	i
Cc1cc(-c2onc3ccc(Cl)cc23)ccc1O	i	-26	-4	i	i	i	i	8	2	i
c1csc(CNc2ncnc3ccc(-c4ccc5c(c4)OCO5)cc23)c1	i	.	.	.	.	.	.	0	0	.
O=[N+]([O-])c1ccc(-c2nc(NCC3CCCO3)c3ccccc3n2)cc1 (stereo not drawn)	i	-6	-3	i	i	i	i	0	5	i
Oc1ccc(Cl)cc1C1=NCCNC(C(F)(F)C(F)F)=C1	i	-9	-9	i	i	i	i	9	14	i
O=C(O)CSc1ccnc2cc(Cl)ccc12	i	-1	-3	i	i	i	i	1	1	i
COc1ccc2nc(NC(=O)C3CCN(S(=O)(=O)c4cccc5nsnc45)CC3)sc2c1	i	.	.	.	.	.	.	4	4	.
CCc1nn(CC(=O)NCc2ccccc2Cl)c(=O)c2cccn12	i	2	-8	i	i	i	i	0	3	i

Another view of part of the listing above:
c1csc(CNc2ncnc3ccc(-c4ccc5c(c4)OCO5)cc23)c1
  KCNK3 inh = i
  GSK3beta inhib = .
  hERG rescue = .
  KCNQ1 block = .
  RGS4 pot = .
  PolyA inh = .
  KCNK9 block = .
  GSK3 alpha inh = 0
  HDAC3 inhib = 0
  KCNQ1 pot = .
O=[N+]([O-])c1ccc(-c2nc(NCC3CCCO3)c3ccccc3n2)cc1 (stereo not drawn)
  KCNK3 inh = i
  GSK3beta inhib = -6
  hERG rescue = -3
  KCNQ1 block = i
  RGS4 pot = i
  PolyA inh = i
  KCNK9 block = i
  GSK3 alpha inh = 0
  HDAC3 inhib = 5
  KCNQ1 pot = i
